High-throughput results deposited in PubChem BioAssay by Broad Institute.
rRNA inh HTS: reduced GFP signal of wild-type E. coli, primary screen, bacterial rRNA inhibitor project, GFP/RFP fluorescence, OD600, single point; E. coli WT GFP vs humanized-ribosome RFP mutants, 24 h; active compounds read low; DMSO median 0, no signal -100; 350,000 tested, 1.6% active; GFP signal change (wild-type ribosome), % (test concentration not listed);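 active = significant combined selectivity score with lowered wild-type GFP, culture density cut under 30%, mutant RFP and density less affected; inactive = any of these conditions unmet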; also: one replicate is shown; some compounds called inactive have numbers as strong as hits
rRNA inh HTS OD600: also measured in rRNA inh HTS; calls as there; OD600 change, %; measured here: OD600 growth;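 optical density of the mix in the first replicate; 0 = DMSO median and -100 = no signal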
rRNA inh HTS RFP: further read-out of rRNA inh HTS, marked with its call; RFP signal change, %; measured here: RFP humanized mutant strains;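 first replicate; 0 = DMSO median and -100 = no signal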
* hit, by the source's call. The list is partial, so the mix of outcomes need not match the whole.

rRNA inh HTS	SMILES	rRNA inh HTS OD600	rRNA inh HTS RFP
4.6	CN1C(=O)c2cc(NC(=O)Nc3ccccc3F)ccc2OC[C@@H]2O[C@@H](CC(=O)NCCc3ccncc3)CC[C@H]21	1.0	-1.2
-0.2	OC[C@H]1[C@@H](c2ccccc2)C2(CN(Cc3nccs3)C2)N1Cc1ccncc1	3.5	-1.6
0.4	C[C@H]1CCCCO[C@H](CN(C)C)[C@@H](C)CN([C@@H](C)CO)C(=O)c2cc(NS(=O)(=O)c3ccc(Cl)cc3)ccc2O1	2.5	1.9
4.1	C[C@@H]1CCCCO[C@H](CN(C)C)[C@@H](C)CN([C@H](C)CO)C(=O)c2cc(NS(=O)(=O)c3ccccc3)ccc2O1	2.7	-1.6
2.8	CC=Cc1ccc2n(c1=O)C[C@@H]1[C@@H](CO)[C@H](C(=O)NCCOC)[C@H]2N1Cc1ccccc1OC (mixture of isomers)	3.2	-2.2
0.0	Cc1noc(C)c1S(=O)(=O)N(C)C[C@H]1Oc2ccc(NS(=O)(=O)c3ccc(F)cc3)cc2C(=O)N([C@H](C)CO)C[C@H]1C	-5.7	-0.8
-3.0	O=C(c1ccc2c(c1)OCO2)N1CC(=O)N2[C@H](C1)[C@@H](c1ccc(C#CC3CCCC3)cc1)[C@@H]2CO	-18.7	30.8
0.8	CCCNC(=O)N1CC(=O)N2[C@H](CO)[C@@H](c3ccc(-c4ccc(F)cc4)cc3)[C@H]2C1	4.5	-1.4
-2.4	N#Cc1ccc(-c2ccc(C3[C@H]4CNC[C@@H]3N4C(=O)Nc3ccc(F)cc3)cc2)cc1 (stereo partly drawn)	-16.0	9.1
-0.5	C[C@H](CO)N1C[C@H](C)[C@H](CN(C)C(=O)Nc2ccccc2F)OCc2cn(nn2)CCCC1=O	2.5	0.0
6.5	O=C(NC1CCC1)[C@H]1[C@H](CO)[C@H]2Cn3c(cccc3=O)[C@H]2N1CC1CCOCC1	4.8	-1.1
-1.0	C/C=C/c1ccc([C@H]2[C@@H](CO)N(C(=O)c3cnccn3)C23CN(C(=O)C2CC2)C3)cc1	0.1	2.9

Continued:
rRNA inh HTS	SMILES	rRNA inh HTS OD600	rRNA inh HTS RFP
-4.2	CO[C@H]1CN(C)C(=O)c2cc(NC(=O)c3cccc(Oc4ccccc4)c3)ccc2OC[C@H](C)NC[C@H]1C	-1.8	26.2
-4.9	C[C@@H]1CN([C@H](C)CO)C(=O)c2cc(NS(=O)(=O)c3ccccc3)ccc2O[C@@H]1CN(C)C(=O)Nc1ccc(C(F)(F)F)cc1	-13.0	0.3
-10.7	O=C(Cc1cccnc1)N1CC(=O)N2[C@H](C1)[C@@H](c1ccc(-c3cccc(F)c3)cc1)[C@@H]2CO	-5.5	1.3
-3.7	COc1ccc(C#Cc2ccc3c(c2)[C@H]2[C@H](CCN2C(=O)C2CCC2)[C@H](CO)N3)cc1	6.8	4.3
4.9	Cc1ccc(S(=O)(=O)Nc2ccc3c(c2)C(=O)N([C@@H](C)CO)C[C@@H](C)[C@@H](CN(C)S(=O)(=O)c2cn(C)cn2)O3)cc1	6.2	-1.0
4.6	CN(C)C(=O)c1cccc(-c2ccc([C@@H]3[C@@H](CO)N4C(=O)CN(C(=O)C5CCCCC5)C[C@H]34)cc2)c1	8.0	-1.3
3.7	C[C@H]1COCn2nncc2CC[C@H](Cc2ccccc2)C(=O)N1	-4.2	-1.5
-5.2	CCN1[C@@H]2c3ccc(-c4cccc(F)c4)c(=O)n3C[C@@H]2[C@@H](CO)[C@@H]1C(=O)N[C@H](C)c1ccccc1	-20.5	-0.6
-0.1	O=C(Nc1cc(F)ccc1F)N1CC(=O)N2[C@H](CO)[C@H](c3ccc(-c4cccnc4)cc3)[C@H]2C1	-4.6	3.3
1.9	C[C@@H]1CN([C@H](C)CO)C(=O)Cc2cc(NS(=O)(=O)c3cn(C)cn3)ccc2O[C@H]1CN(C)CC1CCCCC1	2.5	1.2
3.8	CS(=O)(=O)N1CC2(C1)[C@@H](c1ccccc1)[C@@H](CO)N2C(=O)C1CCC1	6.7	-0.5
1.2	C[C@H]1CN([C@@H](C)CO)C(=O)c2cc(-c3ccc(F)cc3)cnc2O[C@@H]1CN(C)C(=O)c1ccncc1	-9.7	-5.7

Arranged by formula weight (highest first): some entries from above
rRNA inh HTS	SMILES	rRNA inh HTS OD600	rRNA inh HTS RFP
-5.2	CCN1[C@@H]2c3ccc(-c4cccc(F)c4)c(=O)n3C[C@@H]2[C@@H](CO)[C@@H]1C(=O)N[C@H](C)c1ccccc1	-20.5	-0.6
-0.1	O=C(Nc1cc(F)ccc1F)N1CC(=O)N2[C@H](CO)[C@H](c3ccc(-c4cccnc4)cc3)[C@H]2C1	-4.6	3.3
-10.7	O=C(Cc1cccnc1)N1CC(=O)N2[C@H](C1)[C@@H](c1ccc(-c3cccc(F)c3)cc1)[C@@H]2CO	-5.5	1.3
-1.0	C/C=C/c1ccc([C@H]2[C@@H](CO)N(C(=O)c3cnccn3)C23CN(C(=O)C2CC2)C3)cc1	0.1	2.9
6.5	O=C(NC1CCC1)[C@H]1[C@H](CO)[C@H]2Cn3c(cccc3=O)[C@H]2N1CC1CCOCC1	4.8	-1.1

Additional compounds:
rRNA inh HTS	SMILES	rRNA inh HTS OD600	rRNA inh HTS RFP
5.6	CNC[C@H]1Oc2ccc(NC(=O)C3CC3)cc2CC(=O)N([C@H](C)CO)C[C@H]1C	14.9	-1.1
3.5	COc1ccc2c3c([nH]c2c1)[C@@H](CO)N(S(C)(=O)=O)CC31CN(CC2CCOCC2)C1	10.2	0.1
0.1	CCCN1C[C@H](C)[C@H](OC)CN(C)C(=O)c2cc(NS(C)(=O)=O)ccc2OC[C@H]1C	4.5	-0.2
-22.6	CO[C@H]1CN(C)C(=O)c2ccc(NC(=O)c3nc4ccccc4s3)cc2OC[C@H](C)N(Cc2cccnc2)C[C@H]1C	-42.0	-3.6
-4.3	CCC(=O)N1[C@H](CO)[C@H](c2ccc(-c3cccc(OC)c3)cc2)[C@H]1CNC(C)=O	4.7	0.1
2.6	Cc1ccc(S(=O)(=O)Nc2ccc3c(c2)C(=O)N([C@H](C)CO)C[C@@H](C)[C@@H](CN(C)C(=O)Cc2ccccc2)OCCCC[C@H](C)O3)cc1	1.4	-5.1
-2.6	O=C(C[C@@H]1CC[C@H](NS(=O)(=O)c2ccc(F)cc2)[C@@H](CO)O1)NCc1ccccc1F	-3.4	-0.5
2.6	CO[C@H]1CN(C)C(=O)c2cc(NS(C)(=O)=O)ccc2OC[C@@H](C)N(C(=O)NC(C)C)C[C@H]1C	1.6	-1.4
3.6	COc1ccc(NC(=O)N(C)C[C@@H]2OCCCC[C@@H](C)Oc3ccc(NS(=O)(=O)c4ccc(C)cc4)cc3C(=O)N([C@H](C)CO)C[C@H]2C)cc1	-0.6	-0.1
-0.5	O=C(c1cnccn1)N1CC(=O)N2[C@H](C1)[C@H](c1ccc(-c3ccc(F)cc3)cc1)[C@@H]2CO	5.5	-2.2
-0.1	COc1ccc(NC(=O)N2CC(=O)N3[C@H](CO)[C@@H](c4ccc(C#CCC5CCCC5)cc4)[C@H]3C2)cc1	-11.1	18.4
-7.4	COc1cccc(-c2ccc([C@@H]3[C@H]4CN(C(=O)C5CCCCC5)CC(=O)N4[C@H]3CO)cc2)c1	-49.1	23.6

Later entries.
rRNA inh HTS	SMILES	rRNA inh HTS OD600	rRNA inh HTS RFP
4.4	CCCC(=O)N1CC2(C1)CN(C(=O)c1ccc(F)cc1)[C@H](CO)c1[nH]c3cc(OC)ccc3c12	8.8	1.6
2.5	CNC[C@@H]1Oc2ccc(N)cc2C(=O)N(C)C[C@@H]1C	5.7	-0.8
-0.5	COc1ccc(NC(=O)Nc2ccc3c(c2)C(=O)N(C)C[C@H](OC)[C@H](C)CN[C@H](C)CO3)cc1	-2.7	-1.2
-2.3	CN(C)CC#Cc1ccc([C@@H]2[C@H](CO)N3C(=O)CN(C(=O)c4cccc(F)c4)C[C@@H]23)cc1	3.2	-3.0
3.3	C[C@@H]1CN([C@@H](C)CO)C(=O)CCCn2cc(nn2)CO[C@@H]1CN(C)C(=O)C1CC1	-2.3	-1.7
2.6	COc1ccc2c3c([nH]c2c1)[C@@H](CO)N(C)CC31CCN(C(=O)NC(C)C)CC1	4.5	-2.5
1.6	C[C@@H]1CN([C@@H](C)CO)C(=O)c2cc(N(C)C)ccc2O[C@@H](C)CCCCO[C@H]1CN(C)Cc1ccncc1	-5.7	-0.6
-1.0	CN(C)CC(=O)N[C@H]1C=C[C@H](CC(=O)O)O[C@H]1CO	2.4	0.6
-3.8	C/C=C/c1ccc([C@@H]2[C@@H](CO)N(C(=O)NC(C)C)C23CN(Cc2ccc(OC)cc2)C3)cc1	3.7	4.3
2.1	CC(C)NC(=O)NCC[C@H]1CC[C@H](NS(=O)(=O)c2ccccc2)[C@H](CO)O1	-3.1	0.0
1.3	CCS(=O)(=O)Nc1ccc2c(c1)C(=O)N(C)C[C@@H](OC)[C@H](C)CN(C(=O)C1CCC1)[C@H](C)CO2	1.0	-0.5
-2.3	CCc1nc(N2[C@H](C#N)[C@@H](c3ccccc3-c3ccc(F)cc3)[C@H]2CO)sc1C	1.6	-1.8

Next results follow.
rRNA inh HTS	SMILES	rRNA inh HTS OD600	rRNA inh HTS RFP
-2.5	CN1C(=O)c2cc(NS(=O)(=O)c3ccc(Cl)cc3)ccc2OC[C@@H]2O[C@@H](CC(=O)N3CCc4ccccc4C3)CC[C@H]21	-5.5	8.0
1.1	CO[C@@H]1CN(C)C(=O)c2cc(NC(=O)c3ccc(F)cc3)ccc2OC[C@H](C)NC[C@@H]1C	0.0	-2.6
-2.3	CC(C)NC(=O)Nc1ccc2c(c1)C(=O)N([C@@H](C)CO)C[C@@H](C)[C@@H](CN(C)C(=O)c1ccccc1)OCCCC[C@H](C)O2	3.6	-1.4
-12.9	O=S(=O)(c1ccccc1)N1CC[C@H]2[C@H](CO)Nc3ccc(-c4ccccc4F)cc3[C@H]21	-59.8	15.5
3.6	CC(C)NC(=O)N(C)C[C@@H]1Oc2ccc(NS(=O)(=O)c3cccs3)cc2C(=O)N([C@@H](C)CO)C[C@@H]1C	-0.5	0.4
1.5	COCC(=O)Nc1ccc2c(c1)OC[C@H](C)N(CCC(F)(F)F)C[C@H](C)[C@H](OC)CN(C)C2=O	2.7	-0.3
1.7	CCS(=O)(=O)N1CC(=O)N2[C@H](CO)[C@@H](c3ccc(C#CC4CCCC4)cc3)[C@@H]2C1	-32.5	17.1
-1.2	C[C@@H]1CN([C@@H](C)CO)C(=O)c2cc(NC(=O)C3CCCCC3)ccc2O[C@@H]1CN(C)Cc1ccc(Oc2ccccc2)cc1	-1.6	5.0
7.1	Cc1noc(C)c1S(=O)(=O)N(C)C[C@@H]1Oc2c(NC(=O)C3CCOCC3)cccc2C(=O)N([C@H](C)CO)C[C@@H]1C	5.1	-1.5
5.8	CN(C)CC(=O)Nc1ccc2c(c1)[C@H]1C[C@H](CC(=O)N3CCCCC3)O[C@@H](CO)[C@H]1O2	9.7	-1.4
2.9	COc1ccc2c3c([nH]c2c1)[C@H](CO)N(C(=O)Cc1ccccc1)CC31CN(C)C1	4.9	-1.1
2.8	CNC[C@H]1OCCCC[C@@H](C)Oc2ccc(NS(=O)(=O)c3ccc(F)cc3)cc2C(=O)N([C@H](C)CO)C[C@H]1C	7.4	-0.1

Next records
rRNA inh HTS	SMILES	rRNA inh HTS OD600	rRNA inh HTS RFP
9.3	C[C@H]1CN([C@@H](C)CO)C(=O)c2cc(-c3ccc(F)cc3)cnc2O[C@H]1CN(C)C(=O)CN(C)C	25.0	-2.0
-26.2	O=C(Nc1ccccc1F)N1CC(=O)N2[C@@H](CO)[C@H](c3ccc(C#Cc4ccccc4)cc3)[C@@H]2C1	-50.1	17.6
2.4	CCS(=O)(=O)Nc1ccc2c(c1)C(=O)N(C)[C@H]1CC[C@@H](CC(=O)NC)O[C@@H]1CO2	1.9	-0.3
4.8	CO[C@@H]1CN(C)C(=O)c2ccc(NS(C)(=O)=O)cc2OC[C@@H](C)N(Cc2ccccn2)C[C@@H]1C	4.9	-0.6
4.6	CC(C)(C)[S@@](=O)N1Cc2cc(C(=O)N3CCOCC3)nc(-c3cccc(C4=CCCC4)c3)c2[C@H]1CCO	5.9	29.0
2.2	CN(C)C(=O)c1cccc(-c2ccc([C@H]3[C@H]4CN(C(=O)C5CCC5)CC(=O)N4[C@H]3CO)cc2)c1	-4.9	-2.8
-0.4	CO[C@H]1CN(C)C(=O)c2ccc(NC(=O)c3cc(C)on3)cc2OC[C@H](C)NC[C@@H]1C	-1.9	-1.3
1.4	Cc1ccc(CN2CC(=O)N3[C@@H](CO)[C@H](c4ccc(-c5cccnc5)cc4)[C@@H]3C2)cc1	13.9	-5.5
-1.6	O=C(O)[C@H]1[C@H](CO)[C@H]2Cn3c(ccc(-c4cncnc4)c3=O)[C@H]2N1C(=O)C1CCCC1	-0.8	-1.9
-6.6	O=C(c1ccccc1F)N1CC(=O)N2[C@H](CO)[C@H](c3ccc(C#Cc4ccccc4)cc3)[C@@H]2C1	-52.5	21.5
-2.2	CO[C@H]1CN(C)C(=O)c2cc(NC(=O)Nc3cccc(F)c3)ccc2OC[C@@H](C)N(C(=O)C2CC2)C[C@@H]1C	-9.1	-0.7
2.0	Cc1ccc(S(=O)(=O)N(C)C[C@H]2Oc3ccc(NC(=O)Nc4cccc5ccccc45)cc3C(=O)N([C@H](C)CO)C[C@H]2C)cc1	-1.5	0.4
6.2	CCCNC(=O)N(Cc1cccnc1)C[C@H]1N[C@H](CO)[C@@H]1c1ccccc1	7.0	0.2
